PKD1 kinase inh = inhibitors of human PKD1 kinase, biochemical, fluorescence polarization; Serine/threonine-protein kinase D1 (Homo sapiens), Q15139; PKD1 kinase fluorescence polarization assay; inhibition, %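 (about 10 µM by stock and volumes)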; hit rate 0.056% among 200,000; AID 797, 2007;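 active means inhibition of 50% or more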;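 further: controls were vehicle for no effect and a reference inhibitor for full effect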
Insulin prom inh = inhibitors of insulin promoter-driven GFP, primary screen, imaging, TRM-6 cells (human fetal islet line), eGFP reporter, cell count; reporter expression induced with tamoxifen; inhibition, % at 2 µM; hit rate 0.9% among 130,000; AID 1273, 2008;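 active means inhibition above the mean plus 3 SD, with well images judged a real hit on visual review, cut at about 60% in these data, passing the limit was not always enough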
RGS16-Gao = modulators of RGS16 binding to Galphao, primary screen, biochemical, human proteins, multiplexed bead flow cytometry | bead-based flow cytometry RGS16-Galphao binding, fluorescence; actives lie on both sides | binding response (% of control), % at 10 µM | hit rate 0.38% among 220,000;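 active means below 25% or above 175%, edge rows of some plates excepted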;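 further: Galphao activated by GDP with aluminum fluoride before binding; 100% = wells without compound and 0% = beads without RGS; some results beyond the cut were filed as inactive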
Target sequence (O15492 whole entry, looked up): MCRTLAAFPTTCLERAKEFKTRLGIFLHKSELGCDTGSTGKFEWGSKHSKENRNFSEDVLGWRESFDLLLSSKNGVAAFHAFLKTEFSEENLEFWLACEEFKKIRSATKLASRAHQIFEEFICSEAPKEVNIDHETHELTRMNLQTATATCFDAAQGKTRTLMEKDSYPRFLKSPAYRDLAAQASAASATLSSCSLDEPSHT
Target sequence (P09471 whole entry, looked up): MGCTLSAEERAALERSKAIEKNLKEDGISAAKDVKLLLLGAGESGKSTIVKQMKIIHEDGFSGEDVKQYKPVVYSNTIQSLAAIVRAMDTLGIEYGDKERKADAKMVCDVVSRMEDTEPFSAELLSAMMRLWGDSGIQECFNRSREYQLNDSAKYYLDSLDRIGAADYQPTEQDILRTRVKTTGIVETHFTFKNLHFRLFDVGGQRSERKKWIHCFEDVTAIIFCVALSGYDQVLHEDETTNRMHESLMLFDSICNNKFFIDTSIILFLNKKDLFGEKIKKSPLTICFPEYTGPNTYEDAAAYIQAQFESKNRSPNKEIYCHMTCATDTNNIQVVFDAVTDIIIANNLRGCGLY
HSV augment = enhancers of HSV replication in host cells, fold increase, host cell viability. HSV replication augmentation in cells. maximum fold increase. hit rate 0.005% among 220,000. AID 1956, 2009;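 active means peak rise of 1.5-fold or more in the series; tested in PC3 cells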;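 further: first round at 10 µM; read as green reporter fluorescence; hits show the peak of a series up to 25 µM; 1 = signal of infected wells without compound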
GALR2 ag = GALR2 receptor agonists, primary screen, cell-based; activation, %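 (tested at 5 µM)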; GALR2-expressing cells, agonist activation read-out; hit rate 0.48% among 140,000;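 active means above mean plus 3 SD of all compounds, about 5% in these data, not always enough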;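 further: 0% = vehicle buffer wells and 100% = reference agonist at full effect; tested in CHO reporter cells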
Target sequence (O43603 whole entry, looked up): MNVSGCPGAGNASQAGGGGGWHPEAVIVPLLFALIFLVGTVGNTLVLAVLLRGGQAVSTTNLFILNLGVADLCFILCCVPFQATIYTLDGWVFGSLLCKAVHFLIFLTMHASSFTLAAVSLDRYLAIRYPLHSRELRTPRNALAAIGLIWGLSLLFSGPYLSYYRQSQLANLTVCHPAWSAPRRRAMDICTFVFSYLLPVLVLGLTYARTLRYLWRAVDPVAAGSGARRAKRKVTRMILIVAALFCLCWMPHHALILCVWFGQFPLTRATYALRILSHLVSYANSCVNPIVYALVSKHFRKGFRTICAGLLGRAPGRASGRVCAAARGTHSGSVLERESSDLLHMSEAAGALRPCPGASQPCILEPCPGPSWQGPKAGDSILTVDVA
Insulin prom inh cell count = further read-out of Insulin prom inh, marked with its call; normalized cell count, %; measured here: cell count, toxicity; reference of the scale not given here;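 cells exposed to compound for 48 h; stained nuclei by imaging scaled within each plate; lower means fewer cells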
HSV augment primary fold = second read-out of HSV augment, no call of its own (marks repeat the call); fold increase; compound at 10 µM; measured here: primary screen fold increase 10 uM; tested in PC3 cells;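 GFP signal in the first replicate; 1 = infected wells without compound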
Numbers without * were called inactive.

`Cc1ccccc1OCC(=O)NN1C(=O)C2C3C=CC(O3)C2C1=O` (configuration not stated) gave PKD1 kinase inh 0.1, Insulin prom inh -11.8, RGS16-Gao 102.3, HSV augment inactive, Insulin prom inh cell count 120.7 and HSV augment primary fold 1.17.
`CN(CCc1ccccc1)Cc1nc(-c2cnccn2)no1` gave PKD1 kinase inh -4.0, RGS16-Gao 98.5, HSV augment inactive and HSV augment primary fold 1.05.
`CC1CCCN(C(=O)C2CCCN(S(=O)(=O)c3cccc4nsnc34)C2)C1` (configuration not stated) gave PKD1 kinase inh -3.5, Insulin prom inh -26.9, RGS16-Gao 95.4, HSV augment inactive, GALR2 ag 3.7, Insulin prom inh cell count 78.0 and HSV augment primary fold 1.
For O=C(Nc1ccc(Cl)cc1)c1ccsn1 the results were PKD1 kinase inh -1.4, Insulin prom inh -16.7, RGS16-Gao 101.0, HSV augment inactive, GALR2 ag -2.4, Insulin prom inh cell count 76.2 and HSV augment primary fold 0.72.
`CCCCN(C(=O)Oc1ccccc1)C1CCS(=O)(=O)C1` (configuration not stated) gave RGS16-Gao 97.1, HSV augment inactive and HSV augment primary fold 0.99.
For Cn1c(=O)n(Cc2ccccc2)c(=O)c2c1nc1n2CCCN1Cc1ccccc1 the results were PKD1 kinase inh -2.1, Insulin prom inh 6.2, RGS16-Gao 77.4, HSV augment inactive, GALR2 ag -1.5, Insulin prom inh cell count 85.3 and HSV augment primary fold 0.83.
O=C(CCN1CCN(c2ccccc2)CC1)N/N=C/c1ccc([N+](=O)[O-])o1 was read as PKD1 kinase inh -1.1, RGS16-Gao 97.6, HSV augment inactive and HSV augment primary fold 0.92.
For Cc1ccsc1/C=C(\C#N)C(=O)NCc1ccco1 the results were PKD1 kinase inh -8.6, Insulin prom inh 6.7, RGS16-Gao 105.5, HSV augment inactive, GALR2 ag 0.2, Insulin prom inh cell count 155.1 and HSV augment primary fold 1.
Screening O=C(CSc1nnc(NC(=O)C2CCCCC2)s1)NCc1ccco1 returned PKD1 kinase inh 5.6, Insulin prom inh -83.3, RGS16-Gao 102.9, HSV augment inactive, Insulin prom inh cell count 65.0 and HSV augment primary fold 1.25.
Screening O=C(CNC(=S)N(Cc1ccccc1)Cc1cccnc1)NC1CCCC1 returned PKD1 kinase inh 6.2, Insulin prom inh 40.0, RGS16-Gao 162.0, HSV augment inactive, GALR2 ag -2.0, Insulin prom inh cell count 104.3 and HSV augment primary fold 1.06.
For Cn1c(-c2ccc(F)cc2)cnc1SCC(=O)NCc1ccco1 the results were PKD1 kinase inh -1.4, RGS16-Gao 113.5, HSV augment inactive, GALR2 ag -0.6 and HSV augment primary fold 0.81.
Cc1cccc(Sc2nc(-c3ccccc3)ncc2C(=O)O)c1 was read as PKD1 kinase inh -4.2, RGS16-Gao 98.2, HSV augment inactive and HSV augment primary fold 1.
CC(C)C(=O)NC(=S)Nc1ccc(CN2CCOCC2)cc1 was read as PKD1 kinase inh -2.5, Insulin prom inh 5.6, RGS16-Gao 95.0, HSV augment inactive, Insulin prom inh cell count 33.5 and HSV augment primary fold 1.29.
For COc1ccc(C(=O)N/N=C/C2CC=CCC2)cc1OC (configuration not stated) the results were PKD1 kinase inh -3.8, Insulin prom inh -14.3, RGS16-Gao 97.6, HSV augment inactive, Insulin prom inh cell count 97.4 and HSV augment primary fold 0.75.
For COC(=O)c1ccc(C(=O)OC)c(NC(=O)COc2ccccc2OC)c1 the results were PKD1 kinase inh -1.7, Insulin prom inh 38.1, RGS16-Gao 97.3, HSV augment inactive, GALR2 ag -1.4, Insulin prom inh cell count 126.2 and HSV augment primary fold 0.82.
`CCc1cccc(C)c1NC(=S)NCc1ccccc1` gave PKD1 kinase inh 4.0, Insulin prom inh -6.7, RGS16-Gao 104.0, HSV augment inactive, GALR2 ag -1.5, Insulin prom inh cell count 140.3 and HSV augment primary fold 0.96.
Screening OCCn1c(-c2ccc(F)cc2)csc1=Nc1ccccc1 returned PKD1 kinase inh -2.5, Insulin prom inh -20.0, RGS16-Gao 108.3, HSV augment inactive, GALR2 ag -0.6, Insulin prom inh cell count 103.8 and HSV augment primary fold 0.97.
Screening Oc1ccc(N=Nc2ccc(Br)cc2)c(O)c1 returned RGS16-Gao 114.4, HSV augment inactive and HSV augment primary fold 0.82.
CCC/C(O)=C1\C(=O)CC(C)(C)CC1=NCCO was read as PKD1 kinase inh -1.0, Insulin prom inh 9.7, RGS16-Gao 100.7, HSV augment inactive, GALR2 ag -0.8, Insulin prom inh cell count 120.8 and HSV augment primary fold 1.06.
For O=c1c2sc3nc(N4CCOCC4)c4c(c3c2ncn1CCc1ccccc1)CCCC4 the results were PKD1 kinase inh -18.7, Insulin prom inh -10.0, RGS16-Gao 69.2, GALR2 ag -3.2 and Insulin prom inh cell count 149.5.
For O=C(Nc1ccc(N2CCN(C(=O)c3ccccc3)CC2)c(Cl)c1)c1ccco1 the results were PKD1 kinase inh -18.5, Insulin prom inh -15.4, RGS16-Gao 98.4, HSV augment inactive, GALR2 ag -2.0, Insulin prom inh cell count 92.9 and HSV augment primary fold 0.83.
For O=[N+]([O-])c1cc(-c2nnc(C34CC5CC(CC(C5)C3)C4)o2)cc([N+](=O)[O-])c1 the results were PKD1 kinase inh 2.8, RGS16-Gao 97.7 and GALR2 ag -2.0.
For O=C(O)c1cn(CCOc2ccccc2Cl)c2ccccc12 the results were PKD1 kinase inh 1.2, Insulin prom inh 21.4, RGS16-Gao 107.2, HSV augment inactive, Insulin prom inh cell count 81.2 and HSV augment primary fold 0.97.
`O=C(O)c1ccc(/C=N/NC(=S)NCCN2CCOCC2)cc1` gave PKD1 kinase inh -0.4, RGS16-Gao 101.7, HSV augment inactive and HSV augment primary fold 0.97.
C[C@H](NC(=O)c1nc[nH]c1C(=O)N1CCN(c2ccccc2)CC1)C(=O)OC(C)(C)C was read as RGS16-Gao 94.6, HSV augment inactive and HSV augment primary fold 1.03.
`c1csc(Cc2nn3c(-c4ccncc4)nnc3s2)c1` gave PKD1 kinase inh -3.5, Insulin prom inh -25.0, RGS16-Gao 96.7, HSV augment inactive, GALR2 ag -1.3, Insulin prom inh cell count 106.9 and HSV augment primary fold 0.84.
`COc1cc(OC)c(OC)cc1CN1CCCC(C(=O)c2ccccc2SC)C1` (configuration not stated) gave PKD1 kinase inh -1.4, RGS16-Gao 112.5, HSV augment inactive and HSV augment primary fold 0.87.
CCOc1cc(/C=N/NC(=O)c2cccs2)cc([N+](=O)[O-])c1O was read as PKD1 kinase inh -10.1, RGS16-Gao 135.1, HSV augment inactive and HSV augment primary fold 0.95.
For CC(=O)c1cccc(NC(=O)C2CCCCC2)c1 the results were PKD1 kinase inh -4.8, RGS16-Gao 102.7, HSV augment inactive, GALR2 ag -1.9 and HSV augment primary fold 0.83.
`Cc1ccc2nc(NC(=O)COC(=O)CSc3nc(C)cc(C)n3)sc2c1` gave PKD1 kinase inh -4.2, Insulin prom inh -13.3, RGS16-Gao 97.2, HSV augment inactive, GALR2 ag -1.4, Insulin prom inh cell count 88.9 and HSV augment primary fold 0.99.
CC(C)(C)c1ccc(NC(=O)Nc2ccc(F)cc2)cc1 was read as PKD1 kinase inh 1.9, Insulin prom inh 30.0, RGS16-Gao 101.9, HSV augment inactive, Insulin prom inh cell count 142.6 and HSV augment primary fold 0.76.
OCC1(Cc2ccccc2)CCN(Cc2ccc(-c3ccco3)cc2)CC1 was read as PKD1 kinase inh -1.2, RGS16-Gao 99.0, HSV augment inactive and HSV augment primary fold 0.97.
CC(C)(C)C(=O)OCCn1c(=O)c2cc3c(=O)n(CCOC(=O)C(C)(C)C)c(=O)c3cc2c1=O was read as PKD1 kinase inh 1.1, Insulin prom inh 7.1, RGS16-Gao 75.4, HSV augment inactive, GALR2 ag -1.6, Insulin prom inh cell count 77.6 and HSV augment primary fold 0.82.
CC(c1ccco1)N(C(=O)c1ccccc1NS(=O)(=O)c1cc([N+](=O)[O-])ccc1Cl)c1ccccn1 (configuration not stated) was read as PKD1 kinase inh 5.3, Insulin prom inh 42.9, RGS16-Gao 83.9, HSV augment inactive, GALR2 ag 0.1, Insulin prom inh cell count 147.4 and HSV augment primary fold 1.
For CCCCc1nn2c(N)c(/C=C3\C=Nc4ccccc43)c(=O)nc2s1 the results were PKD1 kinase inh -4.9, Insulin prom inh -66.7, RGS16-Gao 113.6, GALR2 ag -1.8 and Insulin prom inh cell count 63.4.
`COc1cc(OC)c(NC(=S)NCc2ccc(F)cc2)cc1Cl` gave PKD1 kinase inh -8.6, Insulin prom inh 10.5, RGS16-Gao 107.5, HSV augment inactive, Insulin prom inh cell count 140.9 and HSV augment primary fold 1.12.
Screening O=C(NC(=S)N1CCN(c2ccc([N+](=O)[O-])cc2)CC1)c1ccccc1F returned PKD1 kinase inh -0.5, Insulin prom inh 25.0, RGS16-Gao 103.8, GALR2 ag 0.5 and Insulin prom inh cell count 69.0.
Screening CCCCCCN1CC(O)=C(c2nc3ccccc3[nH]2)C1=N returned PKD1 kinase inh 2.1, RGS16-Gao 100.7, HSV augment inactive, GALR2 ag 7.2* and HSV augment primary fold 0.89.
`CC(C)OCCCn1c(NN)nc2ccccc2c1=O` gave PKD1 kinase inh -0.6, Insulin prom inh 25.0, RGS16-Gao 101.1, HSV augment inactive, Insulin prom inh cell count 58.0 and HSV augment primary fold 1.14.
`O=C(C1CC1)N1CCc2cc(Br)cc(S(=O)(=O)NCc3ccc4c(c3)OCO4)c21` gave PKD1 kinase inh -8.8, Insulin prom inh -18.8, RGS16-Gao 101.2, HSV augment inactive, GALR2 ag 0.7, Insulin prom inh cell count 123.2 and HSV augment primary fold 0.89.
Cc1cc(C)c2nc(Cl)c(C3NC(=O)c4ccccc4N3)cc2c1 (configuration not stated) was read as PKD1 kinase inh -0.1, RGS16-Gao 98.9, HSV augment inactive and HSV augment primary fold 0.96.
`Cc1ccc2[nH]c(=O)c(CN(Cc3ccco3)C(=O)c3ccncc3)cc2c1` gave PKD1 kinase inh -8.0, Insulin prom inh -21.2, RGS16-Gao 83.7, HSV augment inactive, GALR2 ag -0.7, Insulin prom inh cell count 47.8 and HSV augment primary fold 0.72.
Cc1ccc(C(=O)NS(=O)(=O)c2ccccc2)cc1 was read as PKD1 kinase inh -4.5, RGS16-Gao 104.2, HSV augment inactive and HSV augment primary fold 1.02.
For O=[N+]([O-])c1cnn(-c2nc(-c3ccccc3)cc(C(F)(F)F)n2)c1 the results were PKD1 kinase inh 0.6, RGS16-Gao 99.8, HSV augment inactive and HSV augment primary fold 0.96.
For C=CCN(CC=C)C(=O)c1c(OC)cccc1OC the results were PKD1 kinase inh -4.5, Insulin prom inh -57.1, RGS16-Gao 56.3, HSV augment inactive, GALR2 ag -1.6, Insulin prom inh cell count 62.8 and HSV augment primary fold 0.9.
`O=S1(=O)N=C(N(CCO)/N=C/c2ccncc2)c2ccccc21` gave PKD1 kinase inh 0.9, Insulin prom inh 9.1, RGS16-Gao 109.4, HSV augment inactive, Insulin prom inh cell count 131.6 and HSV augment primary fold 0.92.
Screening Cc1nnc(SCC(=O)N2CCc3ccccc3C2)n1-c1ccccc1 returned PKD1 kinase inh -10.5, Insulin prom inh 48.3, RGS16-Gao 103.8, HSV augment inactive, GALR2 ag 0.2, Insulin prom inh cell count 120.9 and HSV augment primary fold 0.91.
Screening CC(C)CN(C(=O)COC(=O)c1ccc2c(c1)NC(=O)CS2)C1CCS(=O)(=O)C1 (configuration not stated) returned PKD1 kinase inh 14.3, Insulin prom inh 50.0, RGS16-Gao 97.0, HSV augment inactive, GALR2 ag -2.0, Insulin prom inh cell count 192.9 and HSV augment primary fold 0.92.
Cc1cccc(Nc2nc(N)c([N+](=O)[O-])c(N3CC(C)CC(C)C3)n2)c1 (configuration not stated) was read as PKD1 kinase inh 9.3, Insulin prom inh -22.2, RGS16-Gao 106.4, HSV augment inactive, GALR2 ag 3.3, Insulin prom inh cell count 140.5 and HSV augment primary fold 0.57.
`O=C(N/N=C/c1ccccc1[N+](=O)[O-])c1cnccn1` gave RGS16-Gao 103.6, HSV augment inactive and HSV augment primary fold 1.11.

3 structures already listed, sorted by formula weight, rising:
`O=S1(=O)N=C(N(CCO)/N=C/c2ccncc2)c2ccccc21` gave PKD1 kinase inh 0.9, Insulin prom inh 9.1, RGS16-Gao 109.4, HSV augment inactive, Insulin prom inh cell count 131.6 and HSV augment primary fold 0.92.
Cc1cc(C)c2nc(Cl)c(C3NC(=O)c4ccccc4N3)cc2c1 (configuration not stated) was read as PKD1 kinase inh -0.1, RGS16-Gao 98.9, HSV augment inactive and HSV augment primary fold 0.96.
Cc1cccc(Nc2nc(N)c([N+](=O)[O-])c(N3CC(C)CC(C)C3)n2)c1 (configuration not stated) was read as PKD1 kinase inh 9.3, Insulin prom inh -22.2, RGS16-Gao 106.4, HSV augment inactive, GALR2 ag 3.3, Insulin prom inh cell count 140.5 and HSV augment primary fold 0.57.

Screening data from PubChem BioAssay.
